# Screens from PubChem BioAssay.
# Vaccinia Venus: inhibitors of vaccinia virus (Venus reporter). hit rate 0.46% among 330,000. Vaccinia virus Venus reporter expression, fluorescence. Potency, µM (doses to about 36.5 µM), inactives show at the top dose activity change, negative = inhibition, usual class: inhibitors. AID 720580; active means well fitted inhibition curve with a large enough effect; inconclusive means small, poorly fitted or top-dose-only effect; inactive means no such curve, though single readings can be large or run the other way; tested in A549 cells; note: nearly all actives have a fitted effect of over 30% in size; inactives centre near -10
# VACV mCherry inh: vaccinia inhibition (mCherry reporter). Vaccinia virus mCherry reporter infection, fluorescence; about a quarter of the inactives have no number. Potency, µM (highest dose often 36.5 µM), for inactives: top-dose activity change, negative = inhibition, actives largely listed as inhibitors. hit rate 0.63% among 310,000; active = well fitted inhibition curve with a large enough effect; inconclusive = small, poorly fitted or top-dose-only effect; inactive = no such curve, though single readings can be large or run the other way; tested in A549 cells; note: nearly all actives have a fitted effect of over 35% in size; inactives centre near -10
# An asterisk follows results filed as active; i = inactive; ? = inconclusive; nt = not tested or not shown. % is set by controls: 0 for no effect and ±100 for the full control effect; potency is the fitted concentration of half-maximal effect.
# Below each SMILES – Vaccinia Venus	VACV mCherry inh
COc1ccccc1N1CCN(CCN2C(=O)c3ccccc3C(C)(C)C2=O)CC1
→ -15%	-5%
CCC(C)NC(=O)C1CCN(S(=O)(=O)c2cccc3cccnc23)CC1 (configuration not stated)
→ -3%	6%
CCC(C)Sc1ccc(-c2nc3ccc(C)cn3c2NCc2ccccc2)cc1OC (configuration not stated)
→ 13µM*	?
FC(F)(F)c1cccc(N2CCN(c3ccc4nnc(-c5ccccc5)n4n3)CC2)c1
→ -30%	-7%
CCS(=O)(=O)c1ccccc1C(=O)N(Cc1cccnc1)c1nc2cc(C)c(C)cc2s1
→ -16%	-21%
O=C(COC(=O)c1cccnc1)c1ccc(Cl)cc1
→ -12%	-12%
Cc1cccc(NC(=O)c2cc(S(=O)(=O)N3CCN(c4ccccc4F)CC3)ccc2F)c1C
→ -16%	-8%
Cc1ncc2c(c1CNC(=O)/C=C/c1cccs1)CCN(C(=O)c1noc3c1CCCC3)C2
→ -2%	-8%
COC(=O)C1=C(c2cc3ccccc3s2)C[C@@H]2CC[C@H]1N2C
→ -3%	i
O=C(CN1C(=O)NC2(CCc3ccccc32)C1=O)c1ccccc1 (configuration not stated)
→ -11%	i
COc1cc(C(C(=O)NC2CCCCC2)N(C(=O)Cc2c[nH]c3ccccc23)c2ccccc2C)cc(OC)c1OC (configuration not stated)
→ -8%	-10%
CCC(C(=O)Nc1ccccc1C(=O)OC)n1c(C)c2cnn(-c3ccccc3)c(=O)c2c1C (configuration not stated)
→ -5%	-7%
C=CCC[C@H](Cc1ccc(F)cc1)C(=O)OC[C@H](C)NC(=O)[C@H](CC=C)CC(=O)NCCO
→ -16%	-3%
COc1cccc(-n2c(=O)[nH]cc(C(=O)Nc3ccc4c(c3)OCCO4)c2=O)c1
→ -7%	-8%
CSCCC(NC(=O)c1ccccc1Cl)C(=O)NC1CCN(Cc2ccccc2)CC1 (configuration not stated)
→ -9%	-21%

# Next part, overlapping the part above by six compounds.
# Below each SMILES – Vaccinia Venus	VACV mCherry inh
O=C(CN1C(=O)NC2(CCc3ccccc32)C1=O)c1ccccc1 (configuration not stated)
→ -11%	i
COc1cc(C(C(=O)NC2CCCCC2)N(C(=O)Cc2c[nH]c3ccccc23)c2ccccc2C)cc(OC)c1OC (configuration not stated)
→ -8%	-10%
CCC(C(=O)Nc1ccccc1C(=O)OC)n1c(C)c2cnn(-c3ccccc3)c(=O)c2c1C (configuration not stated)
→ -5%	-7%
C=CCC[C@H](Cc1ccc(F)cc1)C(=O)OC[C@H](C)NC(=O)[C@H](CC=C)CC(=O)NCCO
→ -16%	-3%
COc1cccc(-n2c(=O)[nH]cc(C(=O)Nc3ccc4c(c3)OCCO4)c2=O)c1
→ -7%	-8%
CSCCC(NC(=O)c1ccccc1Cl)C(=O)NC1CCN(Cc2ccccc2)CC1 (configuration not stated)
→ -9%	-21%
COc1ccccc1NC(=O)Nc1nc(C(N)Cc2ccccc2)cs1 (configuration not stated)
→ -18%	i
COC(=O)C1=C(c2c(C)noc2C)C[C@@H]2CC[C@H]1N2C(=O)NCCCOC(C)C
→ -5%	i
CC(O)CNCc1ccc(-c2ccccc2)cc1 (configuration not stated)
→ -7%	-14%
Brc1ccc(C2CC(c3ccccc3)=Nc3ccccc3N2)cc1 (configuration not stated)
→ -15%	-17%
CCCCN1C(=O)C(=O)N(c2ccccc2)C1=S
→ -7%	-15%
COc1ccc(CN(C(=O)c2ccc(CN3CCOCC3)o2)C(C(=O)NCC2CCCO2)c2ccc(F)cc2)cc1 (configuration not stated)
→ -2%	5%
CCOC(=O)C1CCN(S(=O)(=O)c2cccc(-c3cn4cc(Cl)ccc4n3)c2)CC1
→ -22%	nt
CCOc1ccc(NC(=O)Cn2nnc(C(=O)NCCc3ccccc3)c2N)cc1
→ -16%	-11%
O=C(Cn1cnc2c(nnn2Cc2ccccc2)c1=O)NCC1CCCO1 (configuration not stated)
→ 1%	-9%
Clc1ccccc1CNCCc1c[nH]c2ccccc12
→ -13%	-8%
c1coc(-c2nc3ccccc3nc2-c2ccco2)c1
→ -11%	i
CN(Cc1ccco1)c1ccnc(-c2cccc(NS(C)(=O)=O)c2)n1
→ 0%	17%
Cc1cc(C)cc(NS(=O)(=O)c2ccc3[nH]cc(C(=O)N(C)Cc4ccccc4)c(=O)c3c2)c1
→ -10%	-15%
Cc1ccccc1OCCC(=O)OCC(=O)N1CCN(S(=O)(=O)c2ccc(Cl)cc2)CC1
→ -8%	i
Cc1ccc2c(C(=O)CCl)c(C)[nH]c2c1
→ -7%	?
N/C(=N\OC(=O)COc1ccc(Br)cc1Cl)c1ccccn1
→ -18%	5%
CC(C)(C)NC(=O)CN(C(=O)CNS(=O)(=O)c1ccc(Cl)cc1)c1ccc2c(c1)OCCO2
→ -6%	-15%
O=C(NC1CCCCCCC1)c1ccccc1O
→ -18%	-21%
CCOc1ccc(CC2CC(=O)NC2=O)cc1 (configuration not stated)
→ -15%	-20%
Cc1ccc(NS(=O)(=O)Cc2ccccc2)nc1
→ -7%	-4%
CCN1C(=O)NC2=C(C(=O)c3ccccc32)C1c1ccccc1F (configuration not stated)
→ -9%	i
COc1cc(Nc2nn(-c3ccc(OC(F)(F)F)cc3)nc2C(C)=O)cc(OC)c1
→ -3%	-9%
Cc1ccc(S(=O)(=O)CS(=O)(=O)c2ccc(C)cc2)cc1
→ -11%	i
CN(C)c1ccc(CNC(=O)CCCN2C(=O)CCn3nc(-c4cn(C)c5ccccc45)cc32)cc1
→ -10%	-10%
CCOC(=O)N1CCN(C(=O)CSc2ccc(C(F)(F)F)cc2[N+](=O)[O-])CC1
→ 4%	-2%
CN(C)c1ccc(/C=C/c2cc3ccccc3cn2)cc1
→ -29%	-28%
COc1cc(C(=O)N/N=C(\Cc2ncc[nH]2)c2ccccc2)cc(OC)c1OC
→ ?	?
CCCOc1ccccc1/C=N/NC(=O)C1CC1
→ -8%	-10%
O=C1C(Cc2ccccc2)Nc2ncnc(N3CCCCC3)c2N1Cc1ccccc1 (configuration not stated)
→ -22%	?
Cc1ccc(Cl)cc1NC(=O)CN1C(=O)C(C)(C)c2cc(S(=O)(=O)N3CCCCC3)ccc21
→ -28%	-28%

# No new results follow: entries from further up.
# Below each SMILES – Vaccinia Venus	VACV mCherry inh
CN(C)c1ccc(/C=C/c2cc3ccccc3cn2)cc1
→ -29%	-28%
COc1cc(C(=O)N/N=C(\Cc2ncc[nH]2)c2ccccc2)cc(OC)c1OC
→ ?	?
CCCOc1ccccc1/C=N/NC(=O)C1CC1
→ -8%	-10%
O=C1C(Cc2ccccc2)Nc2ncnc(N3CCCCC3)c2N1Cc1ccccc1 (configuration not stated)
→ -22%	?
Cc1ccc(Cl)cc1NC(=O)CN1C(=O)C(C)(C)c2cc(S(=O)(=O)N3CCCCC3)ccc21
→ -28%	-28%

# Next part:
# Below each SMILES – Vaccinia Venus	VACV mCherry inh
CCOC(=O)N1CCN(S(=O)(=O)c2ccc3[nH]cc(C(=O)O)c(=O)c3c2)CC1
→ -9%	nt
Cc1nn(-c2ccccc2)c(C)c1/C=N/N1CCN(c2ccccn2)CC1
→ -6%	-13%
N#Cc1ccc(C(=O)Nc2cc(-c3ccccc3)nn2-c2ccccc2)cc1
→ -16%	-12%
Cc1cccc(NC(=O)/C(C#N)=C/c2cn(CC(=O)NCc3ccco3)c3ccccc23)c1
→ 3%	-12%
Cc1ccc(NC(=S)NNC(=O)Cn2nc(C(F)F)cc2C(F)F)cc1
→ -4%	-13%
COCCN1C(=O)c2ccc(C(=O)Nc3cccnc3)cc2C1=O
→ -10%	0%
Cc1cc(Br)ccc1SCC(=O)OCC(=O)NCc1ccco1
→ 15%	i
CCOc1ccc(NC(=O)CCN2CCN(S(=O)(=O)c3ccc(Cl)cc3)CC2)cc1
→ 0%	i
COc1ccc(N2C(=O)CC(N3CCCCC3)C2=O)cc1 (configuration not stated)
→ 9%	-14%
Cc1nc(-c2ccccc2)sc1CCNS(=O)(=O)c1ccc(Br)cc1
→ -6%	-12%
CN1CCN(C(=O)N2c3ccccc3CCc3ccccc32)CC1
→ 4%	i
COc1ccccc1OCCOCCOc1ccc(C)cc1Br
→ -4%	i
Cc1cc(C)n(-c2ccc(C(=O)OC(C)C(=O)Nc3ccc(C(N)=O)cc3)cc2)n1 (configuration not stated)
→ -13%	-20%
COCCCNC(=O)CN(c1ccc(Cl)c(Cl)c1)S(C)(=O)=O
→ -14%	-6%
CCOC(=O)c1cnc2cc(-c3ccc(OCC)cc3)nn2c1-c1ccccc1
→ -16%	-23%
COc1ccc(C(=O)NCC(=O)OC2CCCCC2=O)cc1 (configuration not stated)
→ -5%	i
CCCCNC(=O)C1(C)CCCCN1C(=O)c1cc(C)n(C(C)(C)C)n1 (configuration not stated)
→ -10%	i
O=S(=O)(c1ccccc1)N1CCN(c2nnc(-c3ccccc3)c3ccccc23)CC1
→ -1%	?
Cc1cc(C(=O)CN2CCCC(C)C2)c(C)n1-c1ccc(F)cc1 (configuration not stated)
→ -9%	-18%
O=S(=O)(NCCc1ccc(F)cc1)c1cc(C(F)(F)F)ccc1Br
→ 0%	-12%
CCCS(=O)(=O)N1CCCC(C(=O)NCCCN2CCN(c3cccc(Cl)c3)CC2)C1 (configuration not stated)
→ -22%	nt
CCCC(C)NC(=O)COc1ccc(S(=O)(=O)N2CCCC2)cc1 (configuration not stated)
→ -4%	i
O=C(O)c1ccc(NS(=O)(=O)c2cccc3nsnc23)cc1
→ -4%	i
COc1ccc(OC)c(S(=O)(=O)NCc2csc(-c3ccccc3)n2)c1
→ -13%	-3%
COc1cccc(/C=N/N=C(\N)c2nonc2N)c1O
→ -4%	-4%
COC(=O)CN(Cc1ccccc1)S(=O)(=O)c1ccc(OC)c(OC)c1
→ -1%	-14%
Cc1ccc(F)cc1CNC(=O)c1sc2ncnc(NCC3CCCO3)c2c1C (configuration not stated)
→ -18%	i
COc1ccc(C(=O)Nc2ccnn2C2CCN(CCC(C)c3ccc(C)o3)CC2)cc1 (configuration not stated)
→ -17%	-21%
Cc1ccc(CNC(=O)c2c(Nc3c(C)cccc3C)sc(C(=O)c3ccccc3)c2N)cc1
→ ?	?
O=C1CC(N2CCN(c3ccccc3F)CC2)C(=O)N1c1ccc(F)cc1 (configuration not stated)
→ -13%	i
COc1ccc(OCC(O)CN2C(=O)c3ccccc3S2(=O)=O)cc1 (configuration not stated)
→ 17%	nt
COC(=O)c1c(NC(=S)NNC(=O)c2ccc(Cl)s2)sc(C(=O)N(C)C)c1C
→ -6%	-10%
COc1ccccc1-c1c(C)oc2c(CN3CCCC(C)C3)c(O)ccc2c1=O (configuration not stated)
→ -2%	-27%
C=CC[n+]1ccnc2ccccc21
→ 4%	21%
CC(=O)NC(CC(=O)NC(C)c1ccc(Cl)cc1Cl)c1ccccc1 (configuration not stated)
→ -8%	i
COc1ccc([C@@H]2[C@@H]3C(=O)N(C(C)(C)C)C(=O)[C@@H]3[C@]3(Cc4ccc(Cl)cc4)C(=O)N(c4ccc(OC)cc4)C(=O)N23)cc1
→ -11%	i
COc1ccccc1C(O)c1nccn1C (configuration not stated)
→ -18%	-10%
CCc1ccc(N(CC(=O)N2CCCC2)S(C)(=O)=O)cc1
→ -13%	-2%
Cc1ccc(NC(=O)C2CCCN2S(=O)(=O)c2ccc3c(c2)C(C)(C)C(=O)N3C)cc1 (configuration not stated)
→ -30%	-1%
O=C(NCc1ccc2c(c1)OCO2)c1c(-c2ccccc2)sc2ccccc12
→ -18%	i
CCc1nn(CC(=O)N2CCCCC2)c(=O)c2cc3sc(C)cc3n12
→ 0%	-9%
Cc1cccc(NS(=O)(=O)c2cc(Cl)ccc2Cl)n1
→ -10%	-15%
Cc1ccc(C(=O)/C=C\Nc2ccc(C)c(C)c2)cc1
→ -7%	-2%
CC1CN=C(Nc2ccccc2)S1 (configuration not stated)
→ -2%	-15%
Cc1coc2c(C)c3oc(=O)cc(-c4ccccc4)c3cc12
→ -9%	-17%
Cc1c(Cl)cccc1NC(=O)Cn1nc(C)c2sc3ccccc3c2c1=O
→ ?	?
COc1cc(/C=C2/C(=O)NC(=O)N(c3ccccc3)C2=O)ccc1O
→ -1%	-10%
COc1ccc2c(c1)-c1nc(/N=C/c3ccc(O)c(OC)c3)sc1CC2
→ -21%	-29%
O=C(CSc1cccc(C(F)(F)F)c1)Nc1cc(S(=O)(=O)N2CCCC2)ccc1Cl
→ -17%	-27%
CCOC(=O)c1ccc(OS(=O)(=O)c2ccccc2)c(OC)c1
→ -13%	i
CCOC(=O)c1c(S(=O)(=O)NCC(=O)Nc2ccc(C)c(Cl)c2)c(C)n(C)c1C
→ -1%	-7%
O=Cc1ccc(-n2cccn2)cc1
→ -5%	i
Cc1csc(SCC(=O)c2c(N)n(CC(C)C)c(=O)n(C)c2=O)n1
→ -21%	i
CCS(=O)(=O)N1CCCC(C(=O)c2ccc(OC)cc2C)C1 (configuration not stated)
→ -15%	-19%
Cc1nnc(SCC(=O)Nc2ccc3c(c2)OCO3)[nH]c1=O
→ -7%	i
CCCS(=O)(=O)c1c(S(=O)(=O)CCC)c2ccc(C(C)=O)cn2c1C(=O)OC
→ 3%	i
COC(=O)C1=C(c2cc3ccccc3o2)C[C@@H]2CC[C@H]1N2C(=O)N1CCOCC1
→ ?	?
CCNC(=O)C1(C)CCN(Cc2noc(-c3c(C)noc3C)n2)C1 (configuration not stated)
→ 4%	9%
Cc1c(Cc2ccccc2)c(=O)oc2c(C)c(OC(C)C(=O)NCC3CCC(C(=O)O)CC3)ccc12 (configuration not stated)
→ -5%	-4%
CCCCN(C(=O)Cn1nnc2ccccc21)C(C(=O)NCc1ccco1)c1ccncc1 (configuration not stated)
→ -14%	i
CCOc1ccccc1NC(=O)C1CCCN(S(=O)(=O)c2cn(C)cn2)C1 (configuration not stated)
→ -7%	-16%
